# Screening data from PubChem BioAssay.
# DUX4 txn inh – inhibitors of DUX4-driven ZSCAN4 reporter expression, primary screen, 293T cells, Gaussia and Italica luciferase | 293T-iDUX4 ZSCAN4-Gaussia luciferase reporter, 24 h; stronger effect = lower value | activity change, negative = inhibition, % (test concentration not listed) | hit rate 0.8% among 37,000 | AID 1224904, 2016;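 active means -10% or lower and over 25 points stronger than a control reporter; inconclusive means -10% or lower with a smaller gap; inactive means above -10%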;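 further: 0% = median of neutral control wells and -100% = median of positive control wells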
# DUX4 txn inh difference – also measured in DUX4 txn inh; calls as there; Gaussia minus Italica difference, %; measured here: selective DUX4 reporter inhibition;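 worked out from the two reporters; negative = selective loss of the DUX4 reporter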
# DUX4 txn inh control – further read-out of DUX4 txn inh, marked with its call; activity change, negative = inhibition, %; measured here: Italica tet-on control reporter;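 0 = neutral control and -100 = positive control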
# * hit, by the source's call; ? = inconclusive; . = not tested or not shown. An excerpt (hit frequency here may not be typical).
DUX4 txn inh	DUX4 txn inh difference	SMILES	DUX4 txn inh control
5	11	O=C([C@H]1[C@H](CO)[C@H]2Cn3c(ccc(C4=CCCC4)c3=O)[C@@H]1N2C(=O)c1cccnc1)N1CCOCC1	-5.9
-4	-1	O=C(C[C@H]1CC[C@@H]2[C@H](COC[C@@H](O)CN2Cc2nccs2)O1)N1CCC(Cc2ccccc2)CC1	-3.2
6	2	CN(C)C(=O)C[C@H]1CC[C@@H]2[C@H](COC[C@@H](O)CN2Cc2nccs2)O1	3.7
-2	0	CC(=O)NC[C@H]1[C@H](c2ccc(-c3ccccc3)cc2)[C@H](CO)N1C(=O)C1CC1	-1.9
0	0	COc1cccc(NC(=O)C[C@@H]2CC[C@@H]3[C@@H](COc4ccc(NC(=O)c5ccccc5F)cc4C(=O)N3C)O2)c1	0.1
?	.	O=C(C[C@H]1CC[C@@H]2[C@H](COC[C@@H](O)CN2Cc2cccc(Cl)c2)O1)Nc1nccs1	.
-4	-2	COc1cccc(C(=O)Nc2ccc3c(c2)C(=O)N(C)[C@H]2CC[C@@H](CC(=O)NCc4ccc(F)cc4)O[C@H]2CO3)c1	-2.3
2	1	CO[C@H]1CC[C@@H]2CCOc3ccc(C#N)cc3C(=O)N(C)CCCC(=O)N(C)C[C@H]1O2	0.5
2	3	Cc1ccc(S(=O)(=O)Nc2ccc3c(c2)CC(=O)N([C@@H](C)CO)C[C@H](C)[C@H](CN(C)S(=O)(=O)c2ccccc2)O3)cc1	-1.2
-3	-22	CN1CCCCN2[C@H](CO)[C@@H](c3ccc(-c4ccccc4)cc3)[C@H]2C1	20
?	.	COc1ccc(C#Cc2ccc([C@H]3[C@@H](CO)N4CCCCN(C(=O)Nc5cccc(F)c5)C[C@@H]34)cc2)cc1	.
11	6	C[C@@H]1CN([C@@H](C)CO)C(=O)CCCn2cc(nn2)CO[C@H]1CN(C)S(=O)(=O)c1cn(C)cn1	4.9
0	-4	CCCNC(=O)[C@H]1[C@H](CO)[C@H]2Cn3c(ccc(-c4cccnc4)c3=O)[C@H]2N1C(=O)c1ccccc1F	3.4
-1	-6	CO[C@H]1CC[C@@H]2CCN(C)C(=O)[C@H](C)[C@@H](OC)CN(C)C(=O)c3cc(C#N)ccc3OC[C@@H]1O2	5.4
4	5	C[C@@H]1CCCCO[C@@H](CN(C)C(=O)C2CCCCC2)[C@@H](C)CN([C@H](C)CO)C(=O)c2cc(NC(=O)c3ccncc3)ccc2O1	-1.4
5	4	COc1cccc(C(=O)Nc2ccc3c(c2)C(=O)N(C)[C@@H]2CC[C@H](CC(=O)NCc4ccccc4F)O[C@H]2CO3)c1	1.6
4	-1	COc1cccc(NC(=O)N[C@H]2CC[C@@H](CC(=O)NCc3ccccn3)O[C@@H]2CO)c1	5.1
-1	1	COc1ccccc1NC(=O)Nc1ccc2c(c1)C(=O)N(C)C[C@H](OC)[C@@H](C)CN[C@H](C)CO2	-1.8
-5	-2	CCC(=O)N1CCC2(CC1)CN(Cc1cccc(Cl)c1)[C@@H](CO)c1c2c2ccc(OC)cc2n1C	-3.4
-1	2	O=C(C[C@H]1C[C@@H]2c3cc(NC(=O)c4cccnc4)ccc3O[C@@H]2[C@@H](CO)O1)NCc1cccc(F)c1	-3.2

# Next section, overlapping the part above by 2 compounds.
DUX4 txn inh	DUX4 txn inh difference	SMILES	DUX4 txn inh control
-5	-2	CCC(=O)N1CCC2(CC1)CN(Cc1cccc(Cl)c1)[C@@H](CO)c1c2c2ccc(OC)cc2n1C	-3.4
-1	2	O=C(C[C@H]1C[C@@H]2c3cc(NC(=O)c4cccnc4)ccc3O[C@@H]2[C@@H](CO)O1)NCc1cccc(F)c1	-3.2
-5	-5	N#C[C@H]1N[C@@H](CO)[C@H]1c1ccc(C#Cc2ccccc2F)cc1	-0.1
?	.	Cc1ccccc1-c1ccc([C@H]2[C@H]3CN(S(=O)(=O)Cc4ccccc4)CCCCN3[C@H]2CO)cc1	.
?	-4	Fc1cccc(CN2C[C@@H]3N[C@H](C2)C3c2ccc(-c3cncnc3)cc2)c1 (some centres not stated)	6.0
-4	-9	C[C@@H]1CN([C@H](C)CO)C(=O)CCCn2nncc2CO[C@H]1CN(C)S(=O)(=O)c1ccccc1F	5.1
13	3	C/C=C/c1ccc([C@@H]2[C@H]3CN(C(=O)c4ccncc4)CC(=O)N3[C@H]2CO)cc1	9.8
1	2	CN1C(=O)c2cc(NC(=O)c3cccs3)ccc2OC[C@@H]2O[C@@H](CC(=O)NCCN3CCCCC3)CC[C@H]21	-1.1
7	4	C[C@@H]1CN([C@@H](C)CO)S(=O)(=O)c2ccc(-c3cncnc3)cc2O[C@@H]1CN(C)C(=O)Cc1ccncc1	3.0
21	9	CCC(=O)N1CCCCN2[C@H](C1)[C@H](c1ccc(-c3cccnc3)cc1)[C@@H]2CO	13
-1	-6	COc1ccc(CNC(=O)C[C@@H]2CC[C@H](NC(=O)CN(C)C)[C@H](CO)O2)cc1	4.9
12	7	CC(=O)N(C)C[C@H]1OCc2ccccc2-c2c(n(C)c3ccccc23)C(=O)N([C@@H](C)CO)C[C@H]1C	5.5
-3	2	O=C(C[C@@H]1C[C@H]2c3cc(NC(=O)CC4CC4)ccc3O[C@H]2[C@H](CO)O1)NCc1cc(F)ccc1F	-4.5
9	13	CN1CCN(C(=O)C[C@@H]2CC[C@H]3[C@@H](COC[C@@H](O)CN3Cc3cccc(-c4ccncc4)c3)O2)CC1	-4.1
0	0	CO[C@H](CN(C)C(=O)c1cc(Cl)cc(Cl)c1)[C@H](C)CN(C(=O)Nc1ccc(F)cc1)[C@@H](C)CO	-0.6
?	.	O=S(=O)(c1ccccc1F)N1CC[C@@H]2[C@H](CO)Nc3ccc(C4=CCCCC4)cc3[C@@H]21	.
10	8	COc1ccc(NC(=O)N2CCCCN3[C@H](CO)[C@@H](c4ccc(C#CCC(C)C)cc4)[C@H]3C2)cc1	2.5
3	-1	CCCNC(=O)C[C@@H]1CC[C@@H]2[C@H](COC[C@H](O)CN2C(=O)c2ccccn2)O1	3.3
8	4	Cc1noc(C)c1NC(=O)N1C[C@H](O)COC[C@H]2O[C@@H](CC(=O)NCC3CC3)CC[C@@H]21	3.9
-22*	-27*	O=C(C1CC1)N1CCCCN2[C@H](CO)[C@H](c3ccc(-c4cccc(F)c4)cc3)[C@@H]2C1	4.7*
?	.	CC=Cc1ccc2n(c1=O)C[C@@H]1[C@@H](CO)[C@H](C(=O)NCC)[C@H]2N1Cc1cccc(Cl)c1 (mixture of isomers)	.
0	7	O=C(c1ccccc1)N1CC(=O)N2[C@H](C1)[C@H](c1ccc(-c3ccccc3)cc1)[C@@H]2CO	-6.9

# Some of the entries so far, with two lines to a compound:
# Every second line gives: DUX4 txn inh | DUX4 txn inh difference | DUX4 txn inh control
- O=C(C1CC1)N1CCCCN2[C@H](CO)[C@H](c3ccc(-c4cccc(F)c4)cc3)[C@@H]2C1
    -22* | -27* | 4.7*
- COc1ccc(CNC(=O)C[C@@H]2CC[C@H](NC(=O)CN(C)C)[C@H](CO)O2)cc1
    -1 | -6 | 4.9
- C[C@@H]1CN([C@@H](C)CO)C(=O)CCCn2cc(nn2)CO[C@H]1CN(C)S(=O)(=O)c1cn(C)cn1
    11 | 6 | 4.9
- C[C@@H]1CCCCO[C@@H](CN(C)C(=O)C2CCCCC2)[C@@H](C)CN([C@H](C)CO)C(=O)c2cc(NC(=O)c3ccncc3)ccc2O1
    4 | 5 | -1.4

# Whole records as entered above.
# `COc1ccccc1NC(=O)Nc1ccc2c(c1)C(=O)N(C)C[C@H](OC)[C@@H](C)CN[C@H](C)CO2` in the list: DUX4 txn inh: -1; DUX4 txn inh difference: 1; DUX4 txn inh control: -1.8
# `C/C=C/c1ccc([C@@H]2[C@H]3CN(C(=O)c4ccncc4)CC(=O)N3[C@H]2CO)cc1` in the list: DUX4 txn inh: 13; DUX4 txn inh difference: 3; DUX4 txn inh control: 9.8

# Other records follow.
DUX4 txn inh	DUX4 txn inh difference	SMILES	DUX4 txn inh control
-3	-1	C[C@H](CO)N1C[C@H](C)[C@H](CN(C)S(=O)(=O)c2ccc(-n3cccn3)cc2)OCc2cnnn2CCCC1=O	-2.0
-4	-4	C[C@H]1CN([C@@H](C)CO)C(=O)CCCn2cc(nn2)CO[C@@H]1CN(C)Cc1ccc2c(c1)OCO2	0.4
3	-3	COc1cccc(CNC(=O)C[C@@H]2CC[C@H](NC(C)=O)[C@H](CO)O2)c1	5.9
13	9	COc1ccc2c3c(n(C)c2c1)[C@H](CO)N(Cc1cccc(Cl)c1)CC31CN(C(=O)C2CC2)C1	4.2
0	-7	C[C@@H]1CN([C@@H](C)CO)C(=O)CCCn2cc(nn2)CO[C@H]1CN(C)C(=O)Nc1ccc2c(c1)OCO2	7.2
?	4	N#Cc1cccc(-c2ccc(C3[C@H]4CNC[C@@H]3N4Cc3cc(F)ccc3F)cc2)c1 (some centres not stated)	6.2
7	3	Cc1noc(C)c1NC(=O)N(C)C[C@H]1OCCCC[C@H](C)Oc2ccc(NC(=O)Nc3cccc4ccccc34)cc2C(=O)N([C@H](C)CO)C[C@@H]1C	3.6
6	4	CC(C)[C@@H](C)NC(=O)N(C)C[C@H]1OCc2ccccc2-c2c(n(C)c3ccccc23)C(=O)N([C@H](C)CO)C[C@H]1C	2.4
2	-1	CC(C)N(C[C@H]1N[C@H](CO)[C@H]1c1ccccc1)S(=O)(=O)c1ccccc1	2.6
14	12	O=C(C[C@@H]1CC[C@@H]2[C@H](COC[C@H](O)CN2C(=O)c2ccccc2F)O1)NCc1ccc(F)cc1	2.6
3	1	O=C(C[C@H]1C[C@@H]2c3cc(NC(=O)c4ccc5c(c4)OCO5)ccc3O[C@@H]2[C@H](CO)O1)NCc1ccccn1	1.8
-6	-6	CCS(=O)(=O)Nc1ccc2c(c1)C(=O)N(C)C[C@H](OC)[C@H](C)CN(CC1CCCCC1)[C@@H](C)CO2	0.0
-6	2	C[C@H]1CN([C@@H](C)CO)C(=O)c2ccccc2-c2ccccc2CO[C@@H]1CN(C)S(=O)(=O)c1ccc(Cl)cc1	-7.8
-2	-2	CN1C(=O)c2cc(NC(=O)c3ccc(Cl)cc3)ccc2OC[C@@H]2O[C@@H](CC(=O)NCc3cccc(F)c3)CC[C@H]21	-0.4
-4	9	O=C(C[C@H]1CC[C@H]2[C@@H](COC[C@@H](O)CN2C(=O)c2ccccc2F)O1)NCc1ccc(-c2ccccc2)cc1	-13
3	3	C[C@H](CO)N1C[C@H](C)[C@@H](CN(C)C(=O)c2ccncc2)OCCCC[C@H](C)Oc2ccc(NC(=O)CCC(F)(F)F)cc2C1=O	0.1
-2	-2	O=C(Nc1ccc(-c2ccccc2)cc1)[C@H]1[C@H](CO)[C@H]2Cn3c(cccc3=O)[C@@H]1N2Cc1cccnc1	0.4
?	.	C[C@@H]1CN([C@H](C)CO)C(=O)c2c(c3ccccc3n2C)-c2ccccc2CO[C@@H]1CN(C)S(=O)(=O)c1cccc(C#N)c1	.
0	-4	CO[C@@H]1CN(C)C(=O)c2ccc(NC(=O)Nc3cc(F)ccc3F)cc2OC[C@@H](C)N(C(=O)c2ccccn2)C[C@H]1C	4.4
4	7	C/C=C/c1ccc([C@H]2[C@H](CO)N(C(=O)c3cnccn3)C23CN(C(=O)CC)C3)cc1	-2.8
?	.	COc1ccc2c3c(n(C)c2c1)[C@@H](CO)N(C(=O)Nc1ccc(F)cc1)CC31CN(S(=O)(=O)c2cccs2)C1	.
2	0	CO[C@H]1CC[C@@H]2CCOc3ccc(C#N)cc3C(=O)N(C)C[C@@H](OC)[C@@H](C)C(=O)N(C)C[C@@H]1O2	1.9
5	4	COCC(=O)Nc1ccc2c(c1)[C@@H]1C[C@H](CC(=O)N[C@H](C)c3ccccc3)O[C@@H](CO)[C@@H]1O2	0.6
-2	-6	C[C@H](CO)N1C[C@H](C)[C@@H](CN(C)S(=O)(=O)c2cn(C)cn2)OCCCC[C@H](C)Oc2ccc(NC(=O)CCCN(C)C)cc2C1=O	4.2
-1	-6	O=C(C[C@H]1C[C@@H]2c3cc(NC(=O)c4ccc5c(c4)OCO5)ccc3O[C@@H]2[C@H](CO)O1)NCc1cccc(F)c1	4.3
9	5	O=S(=O)(c1ccccc1)N1[C@@H]2CNC[C@H]1C2c1ccc(-c2ccc(F)cc2)cc1 (some centres not stated)	4.7
-3	-3	Cc1noc(C)c1NC(=O)Nc1ccc2c(c1)C(=O)N([C@@H](C)CO)C[C@@H](C)[C@@H](CN(C)S(=O)(=O)c1cccs1)OCCCC[C@@H](C)O2	-0.9
2	2	C[C@@H]1CN([C@@H](C)CO)C(=O)c2cc(C#CCN(C)C)cnc2O[C@@H]1CN(C)C(=O)Nc1cccc(F)c1	0.1
7	-9	c1ccc(-c2ccc(C3[C@H]4CNC[C@@H]3N4Cc3cccc(-c4ccncc4)c3)cc2)cc1 (some centres not stated)	16
-1	-3	C[C@H](CO)N1C[C@H](C)[C@@H](CN(C)Cc2cccc3c2OCCCO3)OCc2cnnn2CCCC1=O	1.8
-3	-2	C/C=C/c1ccc([C@@H]2[C@H](CO)N(C(C)=O)[C@H]2CNC(=O)c2ccccc2)cc1	-0.9
1	5	O=C(Nc1ccccc1F)N1C[C@H]2[C@@H](c3ccccc31)[C@@H](CO)N2C(=O)c1ccc(F)cc1	-4.5
-6	2	COc1cccc(S(=O)(=O)N(C)C[C@H]2OCc3ccccc3-c3ccccc3C(=O)N([C@H](C)CO)C[C@@H]2C)c1	-8.0
0	2	COc1ccc(C[C@H]2CCn3cc(nn3)COC[C@@H](CC(C)C)NC2=O)cc1	-1.4
-1	2	CCCNC(=O)N1C[C@@H]2[C@H](c3ccccc31)[C@@H](CO)N2Cc1cccc(OC)c1	-3.6
-1	3	C[C@H](CO)N1C[C@H](C)[C@@H](CN(C)Cc2ccc3c(c2)OCO3)Oc2ccc(NC(=O)Cc3cn(C)c4ccccc34)cc2C1=O	-3.6
